# Bioassay records (PubChem BioAssay)
# Vif A3G: HIV-1 Vif–A3G interaction blockers – biochemical, TR-FRET, GST-Vif 1-94, biotin-A3G peptide, dose response retest, primary screen (AID 1117319); TR-FRET GST-Vif / biotin-A3G peptide binding; higher % means a stronger effect; test concentration not given here; strong numbers were not always called active; 0.57% of 260,000 active; inhibition, %, or IC50 in µM where a hit was titrated;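 active = above the screen mean plus three standard deviations and confirmed in dose response; inconclusive = results disagree or hit not tested in dose response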;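 also: Vif residues 1-94 fused to GST binding biotinylated APOBEC3G peptide 110-148; 0% = full assay without inhibitor and 100% = GST in place of GST-Vif; retest series ran down from 100 µM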
# HNF4A DNA FP: change in binding of human HNF4 alpha to DNA; 0.3% of 360,000 active; HNF4a-FITC DNA binding, fluorescence polarization, 1 h; activity change, % at 10 µM; AID 1224865; P41235; in the data active = activity change above about 30%, passing the limit was not always enough;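 also: controls were the assay level and a saturating level of protein; the project sought stronger binding though the title names inhibitors; some compounds called inactive have numbers as strong as hits; positive values seem to mean higher polarization but the record does not say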
# Target sequence (P41235 whole entry, looked up): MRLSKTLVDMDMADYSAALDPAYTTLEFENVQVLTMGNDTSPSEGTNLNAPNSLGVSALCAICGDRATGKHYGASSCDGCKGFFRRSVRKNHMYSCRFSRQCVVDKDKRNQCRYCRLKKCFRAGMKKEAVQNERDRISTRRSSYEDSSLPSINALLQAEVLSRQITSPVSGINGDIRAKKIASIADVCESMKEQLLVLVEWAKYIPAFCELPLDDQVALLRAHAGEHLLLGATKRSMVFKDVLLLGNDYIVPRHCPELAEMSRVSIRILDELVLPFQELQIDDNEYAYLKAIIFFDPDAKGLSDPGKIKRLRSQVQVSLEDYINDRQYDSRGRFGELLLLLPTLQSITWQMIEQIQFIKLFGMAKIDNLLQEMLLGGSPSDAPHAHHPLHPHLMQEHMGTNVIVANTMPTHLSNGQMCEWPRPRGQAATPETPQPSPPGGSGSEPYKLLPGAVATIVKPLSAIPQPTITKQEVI
# Ecoli growth: E. coli growth inhibition | 0.21% of 330,000 active | AID 1053175 | Escherichia coli growth, OD600, 23 h; hits give low values | OD600 absorbance (no concentration beside the values);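 active = OD600 absorbance below the run mean of sample wells minus 3.6 SD, in any replicate, cut at about 0.56 in these data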;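 also: stock transfer was 300 nL into about 60 µL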
# UCH37 inh: blocks the human deubiquitinase UCH37 | Q9Y5K5 | purified proteasome/UCH37, Ub-AMC cleavage fluorescence | inhibition, % (test concentration not listed) | 0.33% of 330,000 active;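 active = mean of two replicates above 20%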;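 also: 0% = compound-free wells with enzyme and 100% = wells lacking proteasome; stock transfer was 100 nL into about 20 µL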
#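 Signal – fluorescence, ex 355 nm, em 460 nm · System – Proteasome-bound UCH37 · Input – 0.15 nM proteasome as dispensed · Timing – 30 min preincubation with enzyme, 25 min cleavage at room temperature · Read-out basis – percent inhibition of cleavage signal versus uninhibited and no-proteasome wells · Medium – Tris-HCl pH 7.4 with ATP-MgCl2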
# B2AR ag: activates human beta-2 adrenergic receptor causing internalization; P07550; Am2.2-beta2AR cells, FAP receptor internalization, flow cytometry; reference of the scale not given here; response, % (no concentration beside the values); 0.43% of 340,000 active; AID 504454;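 active = response above a set limit, near 3 SD of response in nonfluorescent compounds, cut at about 42% in these data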;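 also: stock transfer was 100 nL into about 11 µL; a reference agonist was the positive control; negative values mostly stem from fluorescent compounds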
# Target sequence (P07550 whole entry, looked up): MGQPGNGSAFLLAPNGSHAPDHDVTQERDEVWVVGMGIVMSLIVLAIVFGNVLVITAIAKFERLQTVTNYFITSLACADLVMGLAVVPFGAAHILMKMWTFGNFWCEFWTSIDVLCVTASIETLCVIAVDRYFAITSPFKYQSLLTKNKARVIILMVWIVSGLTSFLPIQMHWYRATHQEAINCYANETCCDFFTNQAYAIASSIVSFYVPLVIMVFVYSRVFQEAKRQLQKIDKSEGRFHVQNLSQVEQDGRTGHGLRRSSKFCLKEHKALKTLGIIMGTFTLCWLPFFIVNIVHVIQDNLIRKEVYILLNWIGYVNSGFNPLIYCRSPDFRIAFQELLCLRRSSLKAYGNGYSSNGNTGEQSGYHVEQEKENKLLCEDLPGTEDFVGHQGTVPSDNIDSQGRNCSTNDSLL
# A1 inh: inhibitors of the anti-apoptotic protein A1, read as caspase activation | MEF A1-2A-BIM cells, Caspase-Glo 3/7 luminescence, 3 h; percent of clofoctol response, vehicle zero | caspase activation, % (no concentration beside the values) | 0.066% of 330,000 active;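 active = over half of replicate activation scores above 10%, or exactly half above 10 with the replicate mean above 10; inconclusive = replicate mean below 10 yet half the replicates above 10; inactive = over half of replicates below 10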;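 also: wells of about 30 µL received 50 nL stock; many hits fall short of the cut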
# LANA-H2B inh: blocks KSHV LANA binding to histone H2A/H2B; 0.6% of 320,000 active; cell-free LANA-H2A/H2B peptide, fluorescence polarization; Q9QR71; inhibition, % (no concentration beside the values); in the data active = inhibition mostly above about 10%, no sharp cut-off; inactive = mostly below about 6.7%;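 also: stock transfer was 7.5 nL into about 10 µL; 0% = median of vehicle wells and 100% = median of positive control wells; one replicate is shown; the record names a cut of 25% in any replicate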
# * marks the source's active call; other numbers are inactive results; ? = inconclusive; · = not tested or not shown.
SMILES,Vif A3G,HNF4A DNA FP,Ecoli growth,UCH37 inh,B2AR ag,A1 inh,LANA-H2B inh
Cc1ccc(N2C(=O)Nc3ccc(Br)cc3C2(O)C(=O)NCCN(C)C)cc1C (stereo unspecified),-6%,2.5,0.69,0.0,1,0.2,-2.0
CCc1c(C)nc2c(-c3ccccc3)c[nH]n2c1=O,·,2.2,0.66,-10,7,-0.2,5.5
O=C(O)c1cc(S(=O)(=O)N2CCCCCC2)c(Cl)cc1Cl,-7%,0.8,0.67,5.3,18,-1.3,-4.0
CN(C)C(=S)Nn1c(-c2ccccc2)nc2ccccc2c1=O,0%,-0.7,0.69,25*,5,0.9,1.0
CCS(=O)(=O)N1CCN(C(=O)c2ccco2)CC1,22%,-0.1,0.66,3.0,-1,0.8,-2.2
CCCn1c(CN2CCN(C(=O)OCC)CC2)nc2cc(NC(=O)CC)ccc21,2%,0.3,0.68,5.7,-13,-0.8,1.9
Cc1ccc2oc(=O)c3cc(C(=O)NCCCN4CC(C)CC(C)C4)sc3c2c1 (stereo unspecified),·,4.2,0.67,-35,16,0.8,-2.7
O=C(Nc1cnn(Cc2ccc(F)cc2)c1)c1cc(-c2ccco2)on1,-11%,4.3,0.7,-10,-10,0.3,7.9
CCc1cc[n+](/C(C(=S)Nc2cccc(C)c2)=C(/[O-])c2ccc(C)c([N+](=O)[O-])c2)cc1,·,4.9,·,·,8,0.4,0.9
O=C(C[C@H]1C(=O)N(c2ccc(F)c(F)c2)C[C@@H]1Cc1ccccc1)Nc1ccccc1,·,-0.9,·,2.4,-7,0.6,6.6
Cn1ccnc1SCc1cn2ccccc2n1,17%,1.5,0.69,-3.3,-2,-0.3,8.1
CCOC(=O)N1CCC(NC(=O)CS(=O)Cc2nc(-c3ccccc3C)oc2C)CC1 (stereo unspecified),-2%,6.2,0.67,0.4,-7,-0.7,-0.6
CC(C)(C)C(=O)Cn1ncc(NC2CC2)c(Br)c1=O,-5%,-0.6,0.79,5.0,-5,-0.2,0.5
O=C(Nc1nnc(COc2ccc(Cl)cc2)s1)c1cccs1,-12%,-1.7,0.79,3.5,-13,0.1,-8.3
COc1cc(C)c(C(=O)Oc2cc(C)c(C(=O)O)c(O)c2C)c(OC)c1C,11%,1.1,·,·,2,-0.2,0.3
CCOC(=O)C(C)/C(C)=N/NC(=O)c1cc2ccccc2cc1O (stereo unspecified),·,-2.3,·,·,-7,-1.7,-2.3
O=C(Cc1ccccc1Cl)N1CCOCC1,·,-0.4,0.69,0.1,2,1.0,-0.2
CC1CC(N(C(=O)c2ccc(Cl)cc2)c2ccccc2)c2ccccc2N1C(=O)c1ccco1 (stereo unspecified),8%,-2.0,0.8,3.2,10,-0.3,2.9
CCc1ccc(N2CC(C(=O)NC3=NCCS3)CC2=O)cc1 (stereo unspecified),4%,-1.7,0.71,1.1,2,2.3,-6.6
CCCCCCCNC(=O)C1(CC2CC(c3ccc(Cl)cc3)=NO2)CCN(C(=O)c2ccccc2)CC1 (stereo unspecified),·,-5.7,0.72,1.8,0,1.2,0.0
CCCCn1cnc2c1c(=O)[nH]c(=O)n2CCCC,4%,-8.5,0.72,-3.4,-4,-0.5,-2.4
CCOC(=O)c1c(-c2ccccc2)oc2ccc(OCC(=O)NN)cc12,0%,-0.3,0.61,-111,27,0.4,4.1
CCC(C(=O)NC(C)(C)C)N(C(=O)Cn1nnc(-c2ccccc2F)n1)c1cnc2ccccc2c1 (stereo unspecified),1%,1.9,0.67,0.5,6,-0.2,-0.1
COc1ccc2[nH]c(C(=O)Nc3ccccc3Cl)cc2c1,-11%,·,0.65,-16,·,-0.3,-3.9
CCCCn1c(Nc2ccc(OC)cc2)nc2ccccc21,·,2.8,0.71,3.9,-4,-0.5,4.5
CC12COC3(C(=O)Nc4cccnc4)CC1CCC32C (stereo unspecified),8%,-0.2,0.75,0.3,6,0.4,2.8
CCOC(=O)N1CCN(C(=O)c2cc3cc(Cl)ccc3[nH]2)CC1,-15%,7.3,0.65,3.8,0,1.1,0.7
Cc1nc(Cl)sc1C(=O)Nc1ccc(Cl)cc1,12%,0.5,0.65,-0.1,-20,-1.8,9.4
COc1ccc(C(=O)COc2nc(C)cc(C)c2C#N)cc1,2%,6.1,0.7,5.1,-11,0.9,2.9
CCCC(O)(c1ccc(OC)cc1)C(CN1CCOCC1)c1ccc(Cl)cc1 (stereo unspecified),0%,-0.9,0.65,3.1,3,0.1,0.9
COc1ccc2c(Cl)c(C(=O)N/N=C/c3c(C)[nH]c4ccccc34)sc2c1,·,19,·,·,-14,-1.0,-1.3
C=CCC[C@H](Cc1ccc(F)cc1)C(=O)OC[C@H](Cc1c[nH]c2ccccc12)NC(=O)[C@@H](CC=C)CC(=O)N(CCO)Cc1ccccc1,·,-4.2,·,-0.1,8,-1.1,2.0
Cc1ccccc1C(=O)Nc1ccccc1C(=O)N1CCC(C)CC1,·,1.1,0.7,2.1,-3,-0.3,0.7
O=C(C(Cl)c1ccccc1)N1CCCC1 (stereo unspecified),·,4.4,0.69,1.3,6,1.5,4.3
CCN(CC)Cc1c(O)ccc2occ(C(=O)c3ccc(OC)cc3)c12,4%,-1.3,0.67,3.6,2,-0.1,-3.4
CC(OC(=O)CC1Sc2ccccc2NC1=O)C(=O)N(C)Cc1ccccc1 (stereo unspecified),1%,4.6,0.62,1.6,3,·,·
O=C(Nc1nncs1)c1ccc(Br)c(S(=O)(=O)N2CCCC2)c1,1%,-0.4,0.71,6.6,4,0.3,1.6
CC(C)CCN1CCC(n2nccc2NC(=O)c2ccc3c(c2)OCO3)CC1,·,0.7,0.69,-0.3,4,-0.6,-2.5
CCN(c1ccccc1)S(=O)(=O)c1ccc(OC)c(NC(=O)CN(C)C)c1,?,-3.4,·,·,-9,-0.8,94*
COc1cc(/C=N/N2C(=O)C3C4C=CC(CC4)C3C2=O)ccc1O (stereo unspecified),-6%,6.0,·,·,3,0.8,-0.4
Cc1ccc(N2C(=N)/C(=C3/Nc4ccccc4S3)C(c3ccccc3)C2=O)cc1 (stereo unspecified),0%,-0.4,0.74,-0.4,11,0.2,11
COC(=O)c1cccc(NC(=S)Nc2cc(Cl)ccc2OC)c1,5%,-2.3,0.71,2.5,8,1.2,-1.9
Cc1cccc(/C=C2/SC(=O)N(Cc3ccccc3Cl)C2=O)n1,-1%,0.2,0.74,4.1,8,0.0,-1.3
COc1ccc(S(=O)(=O)N(CC(=O)Nc2ccc3c(c2)OCO3)c2ccccc2OC)cc1,6%,0.3,0.75,-1.3,13,0.3,7.5
CCCCNC(=O)CC(NS(=O)(=O)c1ccc(C)cc1)c1ccco1 (stereo unspecified),20%,0.8,0.72,2.7,1,0.3,0.7
Cc1ccc(NC(=O)C2=CCN(S(=O)(=O)c3ccc(F)cc3)CC2)c(C)c1,-4%,-0.6,0.72,4.4,-2,0.3,-4.8
O=C(CNC(=O)c1n[nH]c2ccccc12)Nc1ccc(F)c(F)c1F,·,-0.2,0.7,-0.4,-14,0.3,5.5
COc1ccc(CC(=O)Nc2ccc(-c3noc(-c4ccccc4OC)n3)cc2)cc1,-3%,-2.1,0.67,1.0,-17,0.3,-0.1
O=C(Nc1ccc(N2CCN(C(=O)c3cccs3)CC2)cc1)c1ccc([N+](=O)[O-])o1,·,-1.1,·,·,23,1.0,-1.7
CCc1ccccc1Nc1nc(N)nc(CSCC(=O)Nc2ccc(C)c(C)c2)n1,5%,-2.7,0.7,2.9,-2,1.4,3.8

# Three compounds from above, ordered by the value under UCH37 inh, falling:
structure	UCH37 inh
CN(C)C(=S)Nn1c(-c2ccccc2)nc2ccccc2c1=O	25*
O=C(C(Cl)c1ccccc1)N1CCCC1 (stereo unspecified)	1.3
CCC(C(=O)NC(C)(C)C)N(C(=O)Cn1nnc(-c2ccccc2F)n1)c1cnc2ccccc2c1 (stereo unspecified)	0.5

# Further structures:
SMILES,Vif A3G,HNF4A DNA FP,Ecoli growth,UCH37 inh,B2AR ag,A1 inh,LANA-H2B inh
COc1ccc(Nc2cc(Nc3ccc(OC)cc3)ncn2)cc1,8%,-2.8,0.7,3.2,-7,0.8,-4.7
COc1ccc(NC(=O)CSCC(=O)N(C)Cc2ccc(Cl)c(Cl)c2)cc1,24%,0.9,0.65,1.8,5,-0.6,0.7
Cc1cc(C)c(NC(=S)N(Cc2cccnc2)Cc2ccco2)c(C)c1,1%,-1.1,0.61,-0.1,0,0.4,0.5
O=c1[nH]c2ccccc2nc1/C=C(\O)c1cccs1,7%,104,·,·,-71,-12,4.8
C/C(=N\n1cnnc1)c1ccc(C#N)cc1,-1%,2.1,·,·,0,0.0,-10
O=C(Nc1cc(F)ccc1F)N1CCN(c2ccnc3cc(Cl)ccc23)CC1,·,2.4,0.63,3.8,6,-0.3,5.9
Cc1ccc(N(C(=O)CNC(=O)c2ccco2)C(C(=O)NC2CCCC2)c2cccnc2)cc1 (stereo unspecified),25%,3.5,0.66,0.7,-9,-0.1,4.3
O=C(NCc1ccccc1)c1ccc(CN2CCC(Cc3ccccc3)CC2)cc1,-5%,-0.6,0.68,0.6,5,0.9,3.3
CCCn1c(=O)c2c(c3ccccc31)OC(C)C(=O)N2 (stereo unspecified),-2%,3.0,0.73,4.1,5,0.1,6.5
O=C(NC1CCCCC1)c1ccc(S(=O)(=O)c2ccccc2Cl)c([N+](=O)[O-])c1,·,·,0.7,3.7,·,0.0,-3.4
Cc1cc(OC(=O)CNC(=O)OC(C)(C)C)c2c(C)cc(=O)oc2c1,-1%,0.8,0.64,0.4,4,0.0,-2.8
Cc1ccc(NC(=O)COC(=O)c2ccc(C)c(S(=O)(=O)N3CCOCC3)c2)cc1,5%,-1.2,0.69,-1.4,2,·,·
COc1cccc(Nc2ccc(N3CCCCC3)cc2)c1OC,·,-5.1,0.69,-2.7,-1,-1.8,-0.7
COc1ccc(-n2nc(N)c3c(=O)oc(N(C)C)nc32)cc1,-3%,6.0,0.65,1.5,4,0.1,-3.9
COc1ccccc1-n1c(SCC(=O)NCC2CCCO2)nc2c([nH]c3ccccc32)c1=O (stereo unspecified),-8%,2.7,0.7,0.4,-2,-0.3,-0.2
CN(C)c1cc[n+](CC(=O)Nc2ccc(Cl)cc2)cc1,·,-1.0,0.62,1.3,3,0.6,-4.3
Cn1c(/C(C#N)=C(\O)c2ccccc2Cl)nc2ccccc21,·,0.2,0.65,2.0,-26,-2.4,-8.5
O=c1cc(-c2cccs2)oc2ccc(Cl)cc12,-7%,1.4,0.69,-60,-17,·,-2.0
COc1ccc(C(=O)O)cc1NS(=O)(=O)c1cccc2nsnc12,7%,3.9,0.73,6.1,3,0.2,·
CCCN1CCC(NC(=O)Nc2ccc(Br)cc2)CC1,-4%,0.4,0.66,6.4,4,1.2,18*
Cc1cc(CNC(=O)c2cccc([N+](=O)[O-])c2C)c2ccccc2n1,1%,0.5,0.66,0.4,-11,0.3,-0.8
O=C(N/N=C/C(Br)=C\c1ccccc1)c1ccc2nc[nH]c2c1,-2%,2.8,·,·,6,-0.1,-1.4
COc1ccc(C/C(C)=N/NC(=O)c2ccc(C)cc2C)cc1,8%,-0.5,·,·,-1,-0.2,1.7
Cc1cc(NC(=O)c2cc(C)on2)n(-c2ccccc2)n1,-3%,-2.2,·,·,8,1.8,2.6
